Rce1 inh = yeast Ras-converting enzyme inhibition | Q03530 | yeast membranes, quenched prenylated peptide cleavage fluorescence | calls only | 0.27% of 290,000 active;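 active means fall in fluorescence gain of 50% or more versus controls, with final raw signal at or below 3038400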;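 further: plate controls were neutral control wells for no effect and wells lacking membranes for full effect; tested at 10 µM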
Target sequence (Q03530 whole entry, looked up): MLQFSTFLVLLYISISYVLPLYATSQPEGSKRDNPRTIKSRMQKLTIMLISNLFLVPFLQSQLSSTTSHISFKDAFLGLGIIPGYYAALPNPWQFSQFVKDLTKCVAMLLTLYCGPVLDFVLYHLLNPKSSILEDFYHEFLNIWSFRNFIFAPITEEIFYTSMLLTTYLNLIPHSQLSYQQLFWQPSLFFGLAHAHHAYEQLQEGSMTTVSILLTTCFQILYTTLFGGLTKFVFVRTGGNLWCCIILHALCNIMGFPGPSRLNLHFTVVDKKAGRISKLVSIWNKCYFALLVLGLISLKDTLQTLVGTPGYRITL
Yeast UUG start = alters start codon recognition fidelity in yeast | activity score, % at 18.7 µM | 0.13% of 350,000 active | AID 602363 | S. cerevisiae UUG-firefly luciferase reporter, luminescence/redox ratio;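 active means replicate mean at a twofold rise or more, about +100% in these data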;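 further: firefly luciferase made from a UUG start codon reports start codon fidelity; reporter light over untreated wells divided by growth signal over untreated wells; some hits fall short of that in this replicate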
PABP FP inh = PABP-poly(A) binding inhibition; P11940; PABP-poly(A) RNA binding, fluorescence polarization; inhibition, % at 35 µM; 1% of 290,000 active; AID 2014;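 active means 50% or more with normal probe brightness, or confirmed in later tests; about a fifth of its hits are not listed in these tables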;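 further: calls also rest on retests at 20 µM and on dose response follow-up; controls were probe without protein and protein plus probe with vehicle; some compounds called inactive have numbers as strong as hits; many hits fall short of the cut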
eIF4H FP inh = inhibitors of RNA binding by human eIF4H; eIF4H fluorescence polarization binding assay; inhibition, % at 35 µM; 0.94% of 290,000 active; AID 2012;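 active means 50% or more with normal probe brightness, or confirmed in later tests; about a fifth of its hits are not listed in these tables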;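 further: calls also rest on retests at 20 µM and on dose response follow-up; 0% = protein and probe with vehicle and 100% = probe without protein; strong numbers were not always called active; many hits fall short of the cut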
CSC inhib = cancer stem cell inhibition | cancer stem cell-like cells viability, luminescence | 1.1% of 300,000 active | inhibition, % at 7.5 µM | AID 2717;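 active means mean at 75% or more and at least half the replicates too; tested in HMLE shEcad cells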;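 further: 0% = median of negative and 100% = median of positive control wells; the first replicate is given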
MT1-MMP act inh = blocks activation of human MT1-MMP; HT1080 RFP-PRO-GFP cells, GFP/RFP ratio fluorescence, overnight; percent of plate control window, DMSO zero; GFP/RFP ratio change, % at 20 µM; 0.061% of 360,000 active;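 active means GFP/RFP ratio change of at least 30% with cell ATP level not reduced by more than half and red fluorescence within 50% of control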; further: strong numbers were not always called active
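Assay system: HT1080 RFP-PRO-GFP cells. Benchmarks: DMSO vehicle wells and RFP-L50D-GFP reporter cell wells. Times: overnight cell settling, then overnight compound exposure, 37 °C, 5% CO2. Compound: 20 µM single dose, 1% DMSO. Read-out basis: GFP/RFP fluorescence ratio.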
HIV Env fusion = blocks HIV Env-driven cell-cell fusion; 1.1% of 360,000 active; HeLa-JRFL Env/CEM21 cell fusion, luciferase; inhibition, % at 12.3 µM;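 active means mean replicate inhibition score of at least 50 and every replicate individually at or above 50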;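 further: 0% = plate neutral controls and 100% = maraviroc near 300 nM; one replicate is shown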
eIF4H FP inh retest = also measured in eIF4H FP inh; calls as there; inhibition, %; compound at 20 µM; confirmation average;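 mean of two retest wells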
PABP FP inh retest = recorded beside PABP FP inh, whose call it bears; inhibition, %; compound at 20 µM; confirmation repeats;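 mean of two retest wells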
MT1-MMP act inh RFP = further read-out of MT1-MMP act inh, marked with its call; RFP signal change, %; measured here: RFP expression control read;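 0 = vehicle wells; hits needed this value within 50% of zero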
The depositor's hits bear a star; i = inactive; x = no result given; + = active, no number.

SMILES	Rce1 inh	Yeast UUG start	PABP FP inh	eIF4H FP inh	CSC inhib	MT1-MMP act inh	MT1-MMP act inh RFP	HIV Env fusion	others
CN(C)C(=O)c1c(C(F)(F)F)nn(C)c1Cl	i	x	6	-1	-3	-1	0	-12
CC(C)[C@H](NC(N)=O)C(=O)Nc1cccc([N+](=O)[O-])c1	i	x	0	-4	-8	3	-1	0
COc1ccccc1CCNC(=O)C1CCC(=O)N(C2CCCCCC2)C1 (stereo not given)	i	1	-3	-2	-16	1	1	-35
CCOC(=O)c1ccccc1OC(=O)NNc1ccccc1	x	-8	x	x	x	1	3	-11
Cc1nn(CC(=O)NCCCN2CCOCC2)c(C)c1[N+](=O)[O-]	i	-15	-8	-2	-5	2	1	x
COc1ccc(-c2c[n+]3c4n2CCCCC4=C(c2ccc(Br)cc2)C3)cc1	+	-7	5	-1	39	-18	3	24
CCN(CC)CCNC(=O)c1ccc(Cl)c(S(=O)(=O)N2CCCCCC2)c1	i	-17	24	1	6	-3	-3	x
COc1cc(C(=O)OCC(=O)NCc2ccc(F)cc2)ccc1OCC(C)C	i	-5	-6	5	7	1	0	28
CC1CCN(c2ccc(NC(=O)C3CCCN3S(=O)(=O)c3ccc(F)cc3)cc2)CC1 (stereo not given)	x	-12	x	x	x	1	-10	2
Cc1ccc2[nH]c3c(N4CCN(Cc5ccc6c(c5)OCO6)CC4)ncnc3c2c1	x	x	6	-10	x	x	x	40
C/C=C\C=C/C(=O)Nc1cccc(C2=NOC3(C2)C[C@@H](C(N)=O)N(C(=O)COc2ccc(Cl)cc2)C3)c1 (stereo not given in full)	i	2	-5	-6	8	-2	-1	-14
CCOC(=O)C1=C(N)n2c(s/c(=C\c3ccco3)c2=O)=C(C(=O)OCC)C1c1ccco1 (stereo not given)	i	5	86*	97*	69	-4	-6	x
CCOc1cccc(CN2CCCC(N3CCN(c4cccc(Cl)c4)CC3)C2)c1O (stereo not given)	i	-10	-2	-2	40	7	1	14
CC(C)CN(C(=O)COC(=O)c1nc(Cl)ccc1Cl)c1c(N)n(Cc2ccccc2)c(=O)[nH]c1=O	i	-4	5	-5	-1	-1	5	x
COc1cnn(-c2ccc(C)cc2)c(=O)c1Br	i	x	-10	-9	2	0	-2	5
N#CCCN(C(=O)CO/N=C/c1cccc([N+](=O)[O-])c1)c1ccccc1	i	x	-7	2	-18	0	0	-9
CSc1nnc(CNC(=O)C23CC4CC(CC(C4)C2)C3)n1Cc1ccccc1	i	x	96	-6	-20	3	0	7	eIF4H FP inh retest=-2;PABP FP inh retest=-1
Cc1ccc2c(-c3csc(N)n3)c[nH]c2c1	i	x	-8	-1	1	x	x	x
CC1(C)CC(O)C(C(O)c2cccc([N+](=O)[O-])c2)C(C)(C)N1 (stereo not given)	i	x	-4	4	-9	-1	-1	-5
COc1cc2c(C#N)c(N3CCN(C)CC3)nc(N)c2c(N)n1	i	-18	120*	105*	-4	-10	2	-7
COc1cc2nc(CN3CCC(Cc4ccccc4)CC3)[nH]c(=O)c2cc1OC	i	-10	4	-10	-8	3	4	-11
CCCCOc1ccc(C(NC(=O)OCC)NC(=O)OCC)cc1	i	-19	1	-10	-5	-2	2	12
C=CCN1C=C/C(=C\C=C(C#N)C#N)c2ccccc21	i	x	4	28	23	14	71	-11
O=C1CN(CC(=O)NC(=O)NCc2ccccc2)CCN1	i	x	-19	0	-24	1	3	-28
CN(Cc1ccco1)C(=O)C1CCN(c2nnc(-n3cccc3)s2)CC1	i	-5	10	-14	16	4	0	5
O=C(/C=C/c1ccccc1)Nc1ccc2c(c1)OCCO2	i	x	15	12	-4	5	1	-262
Cc1nc(C)c(-c2csc(Nc3ccc(N)cc3)n2)s1	x	-8	5	-2	25	9	-16	9
O=C1c2ccccc2C(=O)c2[nH]c(=O)[nH]c21	i	-16	39	82	x	-7	-15	43	eIF4H FP inh retest=43;PABP FP inh retest=26
Cn1c(N)c(C(=O)COC(=O)CCOc2ccc(C(C)(C)C)cc2)c(=O)n(C)c1=O	i	x	-17	6	-19	-2	4	10
Cc1ccc(S(=O)(=O)N2C[C@H]3C(=O)C[C@@H](c4ccccc4F)N(S(=O)(=O)c4ccc(C)cc4)[C@H]3C[C@H]2c2ccccc2F)cc1	x	-4	x	x	x	-9	-12	-1
O=C(O)C1C2C=CC(C2)C1C(=O)Nc1cccc(C(F)(F)F)c1 (stereo not given)	i	-8	-2	-6	-6	-3	-1	10
CN(C(=O)Cn1cccc1C1=NC(c2ccccc2)CO1)c1ccccc1 (stereo not given)	x	x	7	5	2	8	-1	11
Cc1onc(-c2ccc(Cl)cc2)c1-c1ccnn1S(=O)(=O)c1cccc(C(F)(F)F)c1	i	187*	3	-3	27	-1	-8	27
CCn1cc(/C=C(\NC(=O)c2ccccc2F)C(=O)N2CCOCC2)c2ccccc21	+	-6	-2	-12	-2	-1	6	x
O=C(/C=C/c1ccccc1)NCCSCc1ccccc1Cl	i	x	-14	3	-10	3	-3	x
O=C(Cn1nnc(-c2ccc(OCc3ccccc3F)cc2)n1)N1CCOCC1	i	-11	-13	11	-9	2	-3	-12
O=C(c1ccccc1F)N1CCCC(C(=O)N2CCc3ccccc3C2)C1 (stereo not given)	i	x	-2	91	-8	0	2	-75	eIF4H FP inh retest=24;PABP FP inh retest=25
COc1ccc(CNC(=O)COC(=O)c2nc3nc(C)cc(C)n3n2)cc1	x	-13	x	x	-17	-2	3	x
COc1cccc(Oc2cc(NN3CCCCC3)c([N+](=O)[O-])cc2[N+](=O)[O-])c1OC	i	-6	12	18	32	-4	-3	-27
CC(C)(C)Sc1ccc([N+](=O)[O-])cc1C(=O)Nc1ccncc1	i	x	-5	-7	-4	0	2	-22
Cc1ccc(C=NCc2ccncc2)c(O)c1	i	-19	1	-5	x	1	3	-5
Cc1ccc(S(=O)(=O)NNC(=O)CCC(=O)Nc2ccccc2)cc1	i	-14	2	1	-7	-3	0	x
COc1ccc(CC(=O)NNc2ncnc3c2cnn3-c2ccc(C)cc2)cc1OC	i	x	-19	4	3	-3	2	-65
Cc1ccc(S(=O)(=O)NC(C)C(c2cccs2)N2CCN(c3ccccc3)CC2)cc1 (stereo not given)	i	-10	6	-16	0	0	-8	-7
CCc1ccc(NC(=O)CSc2n[nH]c(=O)n2C2CC2)cc1	x	7	x	x	x	3	-3	-86

Reprinted at random: two compounds from above, in no set order.
SMILES	Rce1 inh	Yeast UUG start	PABP FP inh	eIF4H FP inh	CSC inhib	MT1-MMP act inh	MT1-MMP act inh RFP	HIV Env fusion	others
COc1cccc(Oc2cc(NN3CCCCC3)c([N+](=O)[O-])cc2[N+](=O)[O-])c1OC	i	-6	12	18	32	-4	-3	-27
Cc1ccc(C=NCc2ccncc2)c(O)c1	i	-19	1	-5	x	1	3	-5

Of the compounds above, three contain a cyano group:
SMILES	Rce1 inh	Yeast UUG start	PABP FP inh	eIF4H FP inh	CSC inhib	MT1-MMP act inh	MT1-MMP act inh RFP	HIV Env fusion	others
N#CCCN(C(=O)CO/N=C/c1cccc([N+](=O)[O-])c1)c1ccccc1	i	x	-7	2	-18	0	0	-9
COc1cc2c(C#N)c(N3CCN(C)CC3)nc(N)c2c(N)n1	i	-18	120*	105*	-4	-10	2	-7
C=CCN1C=C/C(=C\C=C(C#N)C#N)c2ccccc21	i	x	4	28	23	14	71	-11

Next part
SMILES	Rce1 inh	Yeast UUG start	PABP FP inh	eIF4H FP inh	CSC inhib	MT1-MMP act inh	MT1-MMP act inh RFP	HIV Env fusion	others
O=C(CCCCCN1C(=O)c2ccccc2C1=O)NCc1ccccn1	i	-12	-6	-9	-5	0	5	x
C=CCn1c(=O)c2c(nc3n2CC(C)CN3CCc2ccccc2)n(C)c1=O (stereo not given)	i	-21	2	-12	41	2	-4	7
Cc1cccc(NC(=O)CC2C(=O)NCCN2C(=S)Nc2ccccc2)c1 (stereo not given)	x	-31	-7	2	-10	4	3	x
Cc1nn(-c2ccccc2)nc1C(=O)Nc1ccc2c(c1)OCCO2	i	-9	-9	-4	8	-1	4	3
CC1=Nc2cc(C(=O)NCCCOC(C)C)ccc2Sc2ccc(C)cc21	i	-4	-3	11	59	1	-10	-235
O=C(NC(=S)NCC1CCCO1)c1cccs1 (stereo not given)	i	x	7	2	2	0	5	-11
Cc1c(NC(=O)c2cnn3c2NC(c2ccccc2)CC3C(F)(F)F)c(=O)n(-c2ccccc2)n1C (stereo not given)	i	1	7	9	-9	2	1	21
Cc1ccc(NC(=O)c2ccc3c(c2)OCO3)cc1S(=O)(=O)N1CCOCC1	x	12	x	x	x	-3	-3	8
CC(C)Cc1nnc(NC(=O)CCC(=O)Nc2ccc(Cl)cc2)s1	i	x	0	-1	-13	-2	0	-8
CC(=O)N1CCN(c2ccc(NC(=O)c3ccc(C(C)(C)C)cc3)cc2)CC1	i	14	1	-4	15	14	-9	10
CC1(OC(=O)C2CCCC2)C(=O)C=C2C=C(c3ccsc3)N(CCc3ccccn3)C=C2C1=O (stereo not given)	i	9	45*	97	-8	4	8	-6	eIF4H FP inh retest=34;PABP FP inh retest=72*
Cc1nnsc1NC(=O)OCc1ccc(C(F)(F)F)cc1	i	-12	-6	1	38	1	-8	x
CC(C)(CNCc1ccccc1)NS(=O)(=O)c1ccccc1	x	3	x	x	-11	0	3	x
O=C(NC1CC1)C1CC(=O)N(C2CCCCC2)C1 (stereo not given)	i	-46	-1	-2	4	2	1	x
[O-]/[N+](=C\C=C\c1ccccc1)c1ccccc1	i	-25	52*	1.1*	-1	1	1	-52	eIF4H FP inh retest=97*;PABP FP inh retest=95*
COc1ccccc1N1CCN(C(=O)C2C3C=CC4(CN(Cc5ccccc5Cl)C(=O)C24)O3)CC1 (stereo not given)	i	-3	-2	2	3	-5	2	10
COc1ccc(N2CC(C(=O)Nc3c4c(nn3-c3ccccc3)CS(=O)(=O)C4)CC2=O)cc1 (stereo not given)	i	-8	5	-7	4	-4	2	-7
CC(=O)c1ccc(NS(=O)(=O)c2cccc(C)c2)cc1	i	-6	-4	-6	17	-3	1	-74
Cc1ccc([C@@H]2CC(=O)[C@@H]3CN(S(=O)(=O)c4ccc(C)cc4)[C@H](c4ccccc4F)C[C@@H]3N2S(=O)(=O)c2ccc(C)cc2)cc1	x	7	x	x	x	-9	-5	-4
COc1ccc2c(C)nc(Nc3nc(C)c(C)c(=O)[nH]3)nc2c1	i	-7	4	-8	106*	-11	-24	66*
CC1CCN(c2ccc(-c3cccc(NC(=O)c4ccco4)c3)nn2)CC1	i	-30	x	x	x	1	-3	-25
COc1ccc(/C(O)=C2/C(=O)C(=O)N(CCCN3CCOCC3)C2c2ccc(OC)cc2)cc1 (stereo not given)	i	3	2	-16	-8	0	3	-7
CN(c1ccccc1C(=O)Nc1cccc(C(F)(F)F)c1)S(C)(=O)=O	i	7	7	12	-4	2	1	x
CN(CC(=O)OCC(=O)c1c(N)n(C)c(=O)n(C)c1=O)S(=O)(=O)c1ccc(Cl)cc1	i	x	22	4	x	-2	1	8
CCC(c1nnnn1C1CCCC1)N1CCN(Cc2ccccc2)CC1 (stereo not given)	i	-40	-6	-10	6	0	6	x
CCOc1ccccc1NC(=O)NC1(C(=O)N2CCN3CCCC3C2)CCCCC1 (stereo not given)	i	-6	-7	0	-1	-25	-1	-86
CC(C)Cc1nnc(NC(=O)CCC(=O)NC2CCCCC2)s1	i	-18	1	-2	-11	3	3	-4
Cc1csc(/C(=N\O)c2csc(C)n2)n1	i	-22	-4	-5	-8	5	7	x
Cc1ccc(C)c(C(=O)COc2ncnc3ccccc23)c1	i	6	4	-1	-8	0	-2	0
O=c1ccc(-c2ccc(S(=O)(=O)Nc3cccc(Br)c3)o2)n[nH]1	i	x	2	-5	2	-2	2	6
CCC1CCCCN1CCNC(=O)C1CCCN(S(=O)(=O)c2cccc3nsnc23)C1 (stereo not given)	i	-13	9	-5	13	-3	3	-2

From PubChem
